Screening data as filed in PubChem.
rRNA inh HTS – reduced GFP signal of wild-type E. coli, primary screen, bacterial rRNA inhibitor project, GFP/RFP fluorescence, OD600, single point; E. coli WT GFP vs humanized-ribosome RFP mutants, 24 h; active compounds read low; DMSO median 0, no signal -100; GFP signal change (wild-type ribosome), % (concentration not given with the values); actives 1.6% (n = 350,000); AID 720706, 2013;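 active = significant combined selectivity score with lowered wild-type GFP, culture density cut under 30%, mutant RFP and density less affected; inactive = any of these conditions unmet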; note: one replicate is shown; some compounds called inactive have numbers as strong as hits
HNF4A DNA FP – change in binding of human HNF4A to DNA, primary screen, biochemical, fluorescence polarization, FITC-DNA. Hepatocyte nuclear factor 4-alpha (Homo sapiens), P41235. 1 h. activity change, % at 10 µM. actives 0.3% (n = 360,000). AID 1224865, 2016; in the data active = activity change above about 30%, passing the limit was not always enough;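 note: controls were the assay level and a saturating level of protein; the project sought stronger binding though the title names inhibitors; some compounds called inactive have numbers as strong as hits; positive values seem to mean higher polarization but the record does not say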
Target sequence (P41235 whole entry, looked up): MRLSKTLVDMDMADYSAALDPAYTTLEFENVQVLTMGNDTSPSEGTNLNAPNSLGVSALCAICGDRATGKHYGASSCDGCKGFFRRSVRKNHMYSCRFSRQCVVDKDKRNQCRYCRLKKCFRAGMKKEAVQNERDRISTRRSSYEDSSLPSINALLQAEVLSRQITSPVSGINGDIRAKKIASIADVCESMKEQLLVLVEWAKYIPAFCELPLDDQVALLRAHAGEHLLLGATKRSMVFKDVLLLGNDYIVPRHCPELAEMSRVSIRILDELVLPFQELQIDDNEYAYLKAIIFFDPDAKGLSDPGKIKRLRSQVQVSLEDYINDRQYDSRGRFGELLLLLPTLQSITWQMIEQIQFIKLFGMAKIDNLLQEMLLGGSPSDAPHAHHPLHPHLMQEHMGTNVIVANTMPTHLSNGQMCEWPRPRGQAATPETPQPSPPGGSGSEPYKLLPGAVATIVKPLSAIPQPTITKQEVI
MLL AF4-AF9 inh – inhibitors of AF4 peptide binding to AF9, primary screen, biochemical, AlphaScreen, biotin-AF4 peptide, FLAG-AF9, single point. Protein AF-9 (Homo sapiens), P42568. inhibition, % at 10 µM. actives 0.47% (n = 350,000);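 active = every replicate reaching a set inhibition limit, whatever the replicate mean, cut at about 25% in these data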;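 note: 0% = plate neutral control median and 100% = total signal loss; the record names both 10 and 1 µM as test concentration; the first replicate is given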
ALR inh – inhibitors of human ALR sulfhydryl oxidase, primary screen, biochemical, H2O2 detection, HRP-luminol luminescence, single point. FAD-linked sulfhydryl oxidase ALR (Homo sapiens), P55789. purified ALR, DTT oxidation. inhibition, % (concentration not given with the values). actives 3.8% (n = 290,000);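 active = mean and each replicate at 75% or more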;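 note: stock transfer was 7.5 nL into about 7.5 µL; 0% = neutral wells and 100% = wells with inactivated enzyme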
Target sequence (P55789 whole entry, looked up): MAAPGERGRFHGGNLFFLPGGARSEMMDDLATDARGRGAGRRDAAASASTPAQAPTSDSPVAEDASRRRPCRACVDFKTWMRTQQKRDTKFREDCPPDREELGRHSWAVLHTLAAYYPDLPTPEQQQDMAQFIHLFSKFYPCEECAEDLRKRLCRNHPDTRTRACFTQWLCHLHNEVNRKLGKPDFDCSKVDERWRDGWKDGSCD
Ecoli growth – E. coli growth inhibition, primary screen, OD600 | Escherichia coli growth, 23 h; active compounds read low | OD600 absorbance (concentration not given with the values) | actives 0.21% (n = 330,000);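 active = OD600 absorbance below the run mean of sample wells minus 3.6 SD, in any replicate, cut at about 0.56 in these data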;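 note: stock transfer was 300 nL into about 60 µL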
Vif TR-FRET – inhibitors of Vif binding to APOBEC3G peptide, primary screen, biochemical, TR-FRET, GST-Vif 1-94, biotin-A3G peptide, dose response retest (AID 1117319); Virion infectivity factor (Human immunodeficiency virus type 1 group M subtype B (isolate …; TR-FRET GST-Vif / biotin-A3G peptide binding; higher % means a stronger effect; test concentration not given here; strong numbers were not always called active; one-dose inhibition, %; IC50 in µM for titrated hits; actives 0.57% (n = 260,000);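 active = above the screen mean plus three standard deviations and confirmed in dose response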;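 note: Vif residues 1-94 fused to GST binding biotinylated APOBEC3G peptide 110-148; 0% = full assay without inhibitor and 100% = GST in place of GST-Vif; retest series ran down from 100 µM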
FGF22 binding – binders of human FGF22 protein, primary screen, FGF22 synaptogenesis inhibitor project, biophysical, thermal shift, single point; actives 1.5% (n = 340,000); AID 651658, 2012; calls only at 9.99 µM; recombinant FGF22 thermal shift, SYPRO orange fluorescence; percent of sucrose octasulfate shift, DMSO zero;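 active = melting point raised past a set limit in the mean and every replicate; three in four hits are not shown here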
Target sequence (Q9HCT0 whole entry, looked up): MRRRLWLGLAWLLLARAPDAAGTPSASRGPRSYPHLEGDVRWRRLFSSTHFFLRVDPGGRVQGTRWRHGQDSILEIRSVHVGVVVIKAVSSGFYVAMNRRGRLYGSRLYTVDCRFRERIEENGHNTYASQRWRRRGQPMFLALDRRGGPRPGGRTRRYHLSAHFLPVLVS
rRNA inh HTS OD600 – second read-out of rRNA inh HTS, no call of its own (marks repeat the call); OD600 change, %; measured here: OD600 growth;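 optical density of the mix in the first replicate; 0 = DMSO median and -100 = no signal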
rRNA inh HTS RFP – further read-out of rRNA inh HTS, marked with its call; RFP signal change, %; measured here: RFP humanized mutant strains;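 first replicate; 0 = DMSO median and -100 = no signal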
Active calls of the source: *; i = inactive; / = no result given; & = joins results of further samples. These rows are one share of the data (hit frequency here may not be typical).

SMILES	rRNA inh HTS	rRNA inh HTS OD600	rRNA inh HTS RFP	HNF4A DNA FP	MLL AF4-AF9 inh	ALR inh	Ecoli growth	Vif TR-FRET	FGF22 binding
N=c1c(C(=O)NC2CCCCC2)cc2c(=O)n3ccccc3nc2n1Cc1ccco1	7	1	-1.8	2.5	1.5	9	0.68	/	i
Cc1cc(C)c(NC(=O)CSc2cccc[n+]2[O-])c(C)c1	1	2	-1.9	-1.5	-2.9	-5	0.71	-2%	i
COc1ccc2c3c([nH]c2c1)[C@@H](CO)N(C(=O)c1ccccn1)CC31CCN(C(=O)C2CCC2)CC1	3	9	-2.3	/	-1.3	/	/	/	i
CS(=O)(=O)N(Cc1ccccc1)c1ccc(C(=O)N2CCOCC2)cc1	/	/	/	2.1	/	2	0.73	7%	/
C[C@@H]1CN([C@H](C)CO)C(=O)c2cc(NC(=O)Nc3ccccc3)ccc2O[C@@H]1CN(C)C(=O)Nc1ccc(F)cc1	-1	-3	-0.1	/	0.9	/	/	/	i
COc1cc(CN2CC(C)OC(C)C2)cc(OC)c1 (centres undefined)	/	/	/	0.9	/	-6	0.6	-1%	/
CCNC(=O)C[C@@H]1CC[C@H]2[C@@H](COc3ccc(NC(=O)c4cc(C)on4)cc3C(=O)N2C)O1	3	5	0.7	/	2.3	/	/	/	i
C[C@@H]1CCCCO[C@@H](CN(C)Cc2ccc(Cl)c(Cl)c2)[C@@H](C)CN([C@@H](C)CO)C(=O)c2cc(NC(=O)CCC(F)(F)F)ccc2O1	4	0	1.5	/	-7.2	/	/	/	i
COc1cc(CNCCSc2nnnn2C)cc(Br)c1OCc1ccc(F)cc1	/	/	/	-2.0	/	-17	0.64	25%	/
C=CCN1N=C(/C=C/c2ccc(OC)cc2)CCC1=O	0	4	1.5	-4.0	6.3	-2	0.69	-1%	i
O=C(Nc1ccc2c(c1)[C@@H]1C[C@@H](CC(=O)N3CCCCC3)O[C@@H](CO)[C@@H]1O2)C1CCC1	-1	0	-2.2	/	-1.0	/	/	/	i
COc1cccc(CN(C)C(=O)CN2C(=O)NC(c3ccccc3)(c3ccccc3)C2=O)c1	-13	-21	3.2	3.7	5.2	/	0.66	1%	i
Cc1ccc(CN2CC=CS2(=O)=O)cc1	9	6	4.4	/	-1.5	/	/	/	i
O=C(Oc1ccc2ccccc2c1)c1cncc(Br)c1	6	-2	-8.2	4.2	8.8	-20	0.65	0%	i
CC(C(=O)NNS(=O)(=O)c1cccc(C(F)(F)F)c1)n1nnc(N2CCOCC2)n1 (centres undefined)	7	11	2.6	4.4	-1.9	35	0.64	-7%	i
COc1ccc(OCc2cc(C(=O)NC(C)c3csc(C)n3)no2)c(Cl)c1 (centres undefined)	7	-35	-3.4	-3.0	2.5	-46	0.7	/	i
C[C@H]1CN([C@@H](C)CO)C(=O)c2cc(NC(=O)Nc3cccc4ccccc34)ccc2O[C@H]1CN(C)C(=O)Nc1ccccc1	-1	-3	-0.6	/	-0.2	/	/	/	i
Cc1nn(C)cc1/C=N/n1nnnc1N	/	/	/	-3.3	/	-9	/	-1%	/
Cc1c(C(=O)OCC(O)=C(C#N)c2nc3ccccc3[nH]2)oc2ccc(Br)cc12	-7	-3	5.5	18	-0.6	/	0.69	-6%	i
CO[C@H]1CN(C)C(=O)c2cc(NC(=O)Nc3ccccc3F)ccc2OC[C@H](C)N(Cc2ccccc2C(=O)O)C[C@H]1C	1	4	-0.2	/	1.1	/	/	/	i

The list goes on, starting with the last four of the part before.
SMILES	rRNA inh HTS	rRNA inh HTS OD600	rRNA inh HTS RFP	HNF4A DNA FP	MLL AF4-AF9 inh	ALR inh	Ecoli growth	Vif TR-FRET	FGF22 binding
C[C@H]1CN([C@@H](C)CO)C(=O)c2cc(NC(=O)Nc3cccc4ccccc34)ccc2O[C@H]1CN(C)C(=O)Nc1ccccc1	-1	-3	-0.6	/	-0.2	/	/	/	i
Cc1nn(C)cc1/C=N/n1nnnc1N	/	/	/	-3.3	/	-9	/	-1%	/
Cc1c(C(=O)OCC(O)=C(C#N)c2nc3ccccc3[nH]2)oc2ccc(Br)cc12	-7	-3	5.5	18	-0.6	/	0.69	-6%	i
CO[C@H]1CN(C)C(=O)c2cc(NC(=O)Nc3ccccc3F)ccc2OC[C@H](C)N(Cc2ccccc2C(=O)O)C[C@H]1C	1	4	-0.2	/	1.1	/	/	/	i
C[C@H](NC(=O)N1CCC(Cc2ccccc2)CC1)C(=O)O	8	8	3.7	3.2	-3.8	1	0.68	0%	i
CCOc1ccccc1C(=O)N(CCC(=O)OC)c1ccccn1	/	/	/	3.8	/	-1	0.72	5%	/
Cc1nn(Cc2cccc(F)c2)c(C)c1NC(=O)c1c(Cl)cnn1C	-18*	-3.2*	-2.1*	-2.1	-1.0	2	0.71	-2%	i
Cc1cc(C)c2c(CN(C)Cc3ccccc3)cc(=O)oc2c1	-6	-24	-7.3	3.9	-1.2	/	/	/	i
COC(=O)CSc1nnc(-c2cccnc2)n1C	10	18	2.7	1.8	-1.5	1	0.68	-3%	i
S=C(Nc1ccc(Cl)cc1Cl)N1CCN(c2ccccn2)CC1	/	/	/	2.6	-4.7	-4	0.73	/	i
CCOC(=O)C(NC(=O)CC)(Nc1ccccc1OC)C(F)(F)F (centres undefined)	/	/	/	-0.1	/	/	0.78	8%	/
COc1ccc(NCc2n[nH]nc2-c2ccccc2)cc1Cl	/	/	/	0.7	/	66	0.7	18%	/
CCOc1c(Cl)cnn(-c2ccc(C)cc2)c1=O	/	/	/	-2.3	/	5	0.74	0%	/
COc1cc(C(=O)NCC(=O)OCCN2C(=O)c3ccccc3C2=O)cc(OC)c1OC	10	-1	0.1	1.9	-8.3	/	0.7	-10%	i
COc1ccc(NC(=O)CSc2nnnn2C)cc1S(=O)(=O)N1CCCCC1	6	6	-1.0	-5.6	2.2	/	0.66	/	i
Nc1nc(-c2ccc(Br)cc2)cs1	/	/	/	-0.8	/	55	0.58	19%	/
CC(C)CNC(=O)COC(=O)c1cc(S(=O)(=O)N2CCCCC2)ccc1N1CCOCC1	/	/	/	-0.7	/	-14	0.73	13%	/
Cc1ccccc1-n1c(SCc2c(C)noc2C)nnc1-c1ccncc1	2	10	0.6	3.2	/	-33	0.69	3%&0%	/
Clc1ccc(CNc2nnnn2-c2ccccc2)c(Cl)c1	/	/	/	0.6	/	-1	0.7	-2%	/
CCC1SC2=NC(C)=C(C(=O)OC)C(c3ccc(C)cc3)N2C1=O (centres undefined)	/	/	/	0.5	/	-5	0.68	-5%	/
Cc1c(NC(=O)C23CC4CC(CC(C)(C4)C2)C3)c(=O)n(-c2ccccc2)n1C	/	/	/	1.1	/	-15	0.68	20%	/
COCCCNc1nc2cc(OC)c(OC)cc2c2nc(-c3ccccc3)nn12	1	6	-0.4	6.2	-2.6	-1	0.69	-7%	i
COc1ccc(/C=N\NC(=O)c2cc(O)c(O)c(O)c2)cc1COc1ccc(C(=O)OCC(C)C)cc1	-1	4	-4.5	-4.0	54*	8	/	/	i
O=C(Nc1ncc(Cc2ccc(Cl)cc2Cl)s1)c1ccc([N+](=O)[O-])cc1	/	/	/	-0.3	/	-1	0.7	-13%	/

Compound profiles, as listed above. Screens in order: rRNA inh HTS, rRNA inh HTS OD600, rRNA inh HTS RFP, HNF4A DNA FP, MLL AF4-AF9 inh, ALR inh, Ecoli growth, Vif TR-FRET, FGF22 binding
Record of Cc1ccccc1-n1c(SCc2c(C)noc2C)nnc1-c1ccncc1 : 2, 10, 0.6, 3.2, /, -33, 0.69, 3%&0%, /
Record of Cc1c(NC(=O)C23CC4CC(CC(C)(C4)C2)C3)c(=O)n(-c2ccccc2)n1C : /, /, /, 1.1, /, -15, 0.68, 20%, /

Returning to the listing with the 6 entries that preceded the break.
SMILES	rRNA inh HTS	rRNA inh HTS OD600	rRNA inh HTS RFP	HNF4A DNA FP	MLL AF4-AF9 inh	ALR inh	Ecoli growth	Vif TR-FRET	FGF22 binding
Clc1ccc(CNc2nnnn2-c2ccccc2)c(Cl)c1	/	/	/	0.6	/	-1	0.7	-2%	/
CCC1SC2=NC(C)=C(C(=O)OC)C(c3ccc(C)cc3)N2C1=O (centres undefined)	/	/	/	0.5	/	-5	0.68	-5%	/
Cc1c(NC(=O)C23CC4CC(CC(C)(C4)C2)C3)c(=O)n(-c2ccccc2)n1C	/	/	/	1.1	/	-15	0.68	20%	/
COCCCNc1nc2cc(OC)c(OC)cc2c2nc(-c3ccccc3)nn12	1	6	-0.4	6.2	-2.6	-1	0.69	-7%	i
COc1ccc(/C=N\NC(=O)c2cc(O)c(O)c(O)c2)cc1COc1ccc(C(=O)OCC(C)C)cc1	-1	4	-4.5	-4.0	54*	8	/	/	i
O=C(Nc1ncc(Cc2ccc(Cl)cc2Cl)s1)c1ccc([N+](=O)[O-])cc1	/	/	/	-0.3	/	-1	0.7	-13%	/
Cc1cc(S(=O)(=O)NCCN(C)C)c(C)s1	/	/	/	-1.1	/	-3	0.71	-1%	/
S=c1[nH]nc(C(c2ccccc2)C2CCCCC2)o1 (centres undefined)	-27*	-16*	-7.9*	-0.3	-1.4	/	0.66	1%	i
CCOc1ccc(S(=O)(=O)N2CCN(C(=O)c3oc4ccccc4c3C)CC2)cc1	-7	-7	-1.3	3.0	-0.9	/	0.65	6%	i
CC1(c2cccc([N+](=O)[O-])c2)CC(C)(C)N(C(=O)c2ccccc2)c2ccccc21 (centres undefined)	/	/	/	0.6	/	-3	0.69	-2%	/
CCNC(=S)Nc1cc(OC)c(NC(=O)c2ccco2)cc1OC	18	17	1.8	-2.1	-0.5	2	0.7	0%	i
COc1ccc2c3c([nH]c2c1)[C@H](CO)N(C(=O)C1CCCC1)CC31CN(Cc2nccs2)C1	-4	5	3.6	/	1.6	/	/	/	i
O=P(CCCCCCCCCP(=O)(c1ccccc1)c1ccccc1)(c1ccccc1)c1ccccc1	/	/	/	-0.6	/	-12	0.7	3%	/
CCC(C(=O)NC1CCCC1)N(C(=O)Cn1nnc(-c2ccc(C)o2)n1)c1ccc(OC)c(OC)c1 (centres undefined)	1	3	-1.8	1.6	-19	/	0.69	/	i
C[C@@H]1CN([C@@H](C)CO)C(=O)c2cc(NS(=O)(=O)c3cn(C)cn3)ccc2O[C@@H](C)CCCCO[C@@H]1CN(C)C	2	0	-3.0	/	-5.8	/	/	/	i
Cc1cccc(OC(=O)C2C(c3ccccc3)C(C(=O)O)C2c2ccccc2)c1 (centres undefined)	/	/	/	-1.2	/	-8	0.64	4%	/
CCOc1ccc(-n2cc(C(=O)N3CCC(C)CC3)c3cc(OC)c(OC)cc3c2=O)cc1	/	/	/	0.7	/	-4	0.68	-4%	/
O=[N+]([O-])c1cc(/C=N/N2CCN(c3ccccc3)CC2)ccc1Cl	2	12	-1.8	-2.1	0.3	-3	/	-8%	i
